# Assay outcomes from PubChem BioAssay.
# H5N1 CPE: antiviral screen in MDCK cells, H5N1 avian flu | cytopathic effect, luminescence, 72 h; stronger effect = higher value; no value below 0 was filed and about half of the inactive calls have no number; reference of the scale not given here | inhibition, % at 50 µM | 0.07% of 96,000 active | AID 740; in the data active = inhibition above about 25%
# Starred values were filed as active, the others as inactive; i = inactive. The list is partial; count on the stated rates, not on these rows.
SMILES,H5N1 CPE
Cc1ccc2c(c1)NC(=O)C(CC(=O)NCCN(CC(C)C)CC(C)C)O2 (stereo unspecified),0.7
CCOC(=O)N1CCN(C(=O)CSc2nnc(C3COc4ccccc4O3)o2)CC1 (stereo unspecified),0.6
O=[n+]1c2c(n([O-])c3cc(F)c(N4CCCC4)cc31)CCCC2,i
Cc1cccc(/C=C2/C(=O)/C(=C/c3ccccc3C)C3CCC2N3C)c1 (stereo unspecified),i
COc1ccc(S(=O)(=O)N2CCC(C(N)=O)(N3CCCCC3)CC2)cc1,0.9
Cc1oc(C(=O)O)cc1CSCc1ccoc1C(=O)O,i
CCc1c(C)[nH]c2ccccc2c1=O,3.2
Cc1cccc(NC(=O)C2CC(=O)OC23CCCCC3)c1 (stereo unspecified),41.1*
O=C(Nc1ccc(NC(=O)C2CC2)nc1)c1ccccn1,i
CCCOc1ccccc1-n1sc2c(c1=S)-c1cc(OC)cc3c1N(C(=O)C3=O)C2(C)C,0.6
COC(=O)c1sccc1NC(=O)CN1CCN(c2ccc(F)cc2)CC1,1.5
CCOc1cccc(N2C(=O)CC(N(CCc3ccc(OC)c(OC)c3)C(=O)CC)C2=O)c1 (stereo unspecified),0.1

# 2 entries from above, with bars between the fields.
SMILES | H5N1 CPE
O=[n+]1c2c(n([O-])c3cc(F)c(N4CCCC4)cc31)CCCC2 | i
Cc1cccc(/C=C2/C(=O)/C(=C/c3ccccc3C)C3CCC2N3C)c1 (stereo unspecified) | i

# (continued)
SMILES,H5N1 CPE
COc1ccc(C(C(=O)Nc2ccc(F)cc2)N(C(=O)Cn2nnc3ccccc32)C2CC2)cc1 (stereo unspecified),i
CC(C)C(c1nnnn1C1CCCCC1)N1CCc2ccccc21 (stereo unspecified),0.7
COC(=O)c1cc(Br)c(=O)n(-c2cc(C)on2)c1,0.7
CS(=O)(=O)c1ccc2nc(NC(=O)CN3CCCCCC3)sc2c1,0.8
CCOc1ccc(C2C3=C(CCCC3=O)Nc3nc(C(F)(F)F)nn32)cc1OC (stereo unspecified),i
COC(=O)c1c(NC(=O)c2c(C)noc2C)sc2c1CCCCCC2,i
Cc1cc(C)n(-c2c(F)c(F)c(CN3CCCCC3)c(F)c2F)n1,5.3
OCCN1CCN(C(=S)c2ccc(Cl)cc2)CC1,2.2
Cc1ccc(-n2c(-c3ccco3)nc3nc4ccccc4nc32)cc1F,0.7
CCNC(=O)Nc1cc2nc(C)n(Cc3ccc(Br)cc3)c2nc1C,0.3
CCOc1ccccc1N=C1NC(=O)CS1,1.0
COCCNC(=O)c1ccc(N(C)S(=O)(=O)c2ccc(OC)c(OC)c2)cc1,1.0
COC(=O)CCC(=O)Nc1ccc(S(=O)(=O)N2CCCCCC2)cc1,i
Cc1cc(C)c2[nH]c(=O)c(C(c3nnnn3CC3CCCO3)N3CCC(C)CC3)cc2c1 (stereo unspecified),i
COC(=O)C1=C(NC(=O)c2ccc(C)c(C)c2)CCS1,0.1
O=C(Cc1cccs1)N1CCCC(c2nc(-c3ccc(S(=O)(=O)N4CCCC4)cc3)no2)C1 (stereo unspecified),2.5
O=C1OCCC1Sc1nnc(-c2ccc3c(c2)OCO3)n1-c1ccccc1 (stereo unspecified),0.3
CCOc1ccc(N(CC(=O)NCCCOC)S(C)(=O)=O)cc1,0.7
Cn1c(=O)[nH]c(=O)c2c1nc(CN1CCN(c3ccc(F)cc3)CC1)n2CCCc1ccccc1,0.2
CC(CC1C(C#N)=C(N)SC(N)=C1C#N)c1ccccc1 (stereo unspecified),0.2
O=C(COc1ccccc1)NC1=NCCS1,i
CSc1ccccc1NC(=O)c1ccccc1N(Cc1ccccc1)S(C)(=O)=O,0.6
Cc1cc2ccccc2n1CCNC(=O)C(C)Oc1ccccc1 (stereo unspecified),i
Cc1nc(NC(=O)CN(C)S(=O)(=O)c2ccc(Br)cc2)sc1C,i
CCCCOCCCNC(=O)c1ccccc1OCC,i
O=[N+]([O-])c1ccc(N2CCN(S(=O)(=O)c3ccc4ccccc4c3)CC2)cc1NCc1ccco1,0.8
Cn1c(=O)c2cc(S(=O)(=O)NCCC(=O)NC3CCCCCC3)ccc2n(C)c1=O,1.4
Brc1ccc(-c2cnnc(N3CCCC3)n2)cc1,0.4
CCCCN(c1ccccc1)S(=O)(=O)c1ccc2c(c1)CCN2C(=O)CCC(=O)O,0.1
CCn1c(C)cc2c(c1=O)C(c1ccc3c(c1)OCO3)C(C#N)=C(N)O2 (stereo unspecified),2.3
O=C(NCC1CCCO1)c1cc2ccccc2[nH]1 (stereo unspecified),i
Cc1ccc2c(c1)-c1c(cnn1CC(=O)N(CCC#N)c1ccccc1)CO2,1.6
O=C(c1ccccc1Cl)N1CCCC(c2nc3c(nnn3Cc3ccccc3)c(=O)[nH]2)C1 (stereo unspecified),1.8
CCN(CC)/C(=N/S(=O)(=O)c1ccc(C)cc1)c1ccccc1,0.2
O=C(Nc1ccc(Cl)cn1)C1CCCN1S(=O)(=O)c1cccc2ccccc12 (stereo unspecified),1.9
CCCN(CCC)C(=O)c1ccc2c(c1)N(Cc1ccccc1)C(=O)CS2=O (stereo unspecified),1.4
COc1cc(NC(=S)Nc2cccc(Cl)c2Cl)c(OC)cc1Cl,0.3
COc1ccc(C(N)CCc2ccc(C)o2)cc1 (stereo unspecified),i
CC1CCC(NC(=O)CN2C(=O)C3CCCN3c3ncc(Cl)cc32)CC1 (stereo unspecified),i
CCCCS(=O)CC(CS(=O)CCCC)OC(=O)c1ccccc1 (stereo unspecified),i
Cc1c(C(=O)O)oc2c1C(O)CC(C)(C)C2 (stereo unspecified),i
O=c1[nH]c(SCc2n[nH]c(=S)n2-c2ccccc2)nc2ccccc12,i
CCCCOC(=O)Cn1c2ccc(OC)cc2c2nc3ccccc3nc21,0.3
CC1CN(S(=O)(=O)c2cn(C)c(=O)n(C)c2=O)CC(C)O1 (stereo unspecified),i
O=C1c2[nH]nc(-c3ccccc3O)c2C(c2cccc(Cl)c2)N1Cc1ccco1 (stereo unspecified),3.2
Cc1ccc(S(=O)(=O)NC(=NCC(=O)O)c2ccccc2)cc1,i
O=C(O)CCN(CCC(=O)O)c1nnc(SCc2ccccc2)s1,0.2
COc1ccc(N(C)C(=O)CCC(=O)Nc2ccc3nc(N4CCOCC4)cc(C)c3c2)c(OC)c1,i
CCOc1ccccc1N1C(=O)c2ccc(C(=O)Nc3cccnc3)cc2C1=O,0.8
CCn1c(C)c2c(C)nnc(C)c2c1C,1.9
CC(=O)c1c(C)[nH]c(C(=O)OC2CCOC2=O)c1C (stereo unspecified),i
CCOC(=O)c1cccc(NC(=O)CSc2nnc(-c3ccncc3)n2CCCOC)c1,0.7
COC(=O)c1ccc(CSc2nnc3ccccn23)o1,2.3
O=C1CN(CC(=O)Nc2ccc(Cl)cc2)CCN1,i
O=C(Oc1ccccc1)c1ccc(COC(=O)c2cnccn2)cc1,i
COc1ccc(C2OC(=O)CC2C(=O)NC2CCCC(C)C2C)cc1OC (stereo unspecified),i
Cn1c(N)c(C(=O)COC(=O)Cn2cc(C(F)(F)F)ccc2=O)c(=O)n(C)c1=O,0.0
Cc1c(NC(C)c2ccccc2O)c(=O)n(-c2ccccc2)n1C (stereo unspecified),1.6
CN1CCN(CC(C)(C)NS(=O)(=O)c2ccc(Cl)cc2)CC1,i
CC(C)CCn1c(SCC(N)=O)nc2c1c(=O)n(C)c(=O)n2C,i

# Carrying on:
SMILES,H5N1 CPE
Cc1ccc(NC(=O)C2CC(=O)N(c3ccc4c5c(cccc35)CC4)C2)cc1 (stereo unspecified),i
CC(OC(=O)c1cccs1)C(=O)NCC1CCCO1 (stereo unspecified),i
CC1(C)Cc2nc3n[nH]c(N)c3cc2CO1,0.1
CCc1ccc(C(=O)NC(CC(C)C)C(=O)O)cc1 (stereo unspecified),0.3
O=C(NCc1ccco1)C(c1cccs1)N(Cc1ccccc1)C(=O)Cn1nnc2ccccc21 (stereo unspecified),i
CCOC(=O)Cn1c(=O)oc2cc(S(=O)(=O)NCc3ccccn3)ccc21,2.1
CCC(C)NS(=O)(=O)c1ccc(NS(C)(=O)=O)cc1 (stereo unspecified),i
CC1(C)NC(=O)N(CCOc2cccc(Cl)c2Cl)C1=O,i
CCOC(=O)N1CCN(C(=O)c2cn(-c3ccc(C)c(C)c3)c(=O)c3ccccc23)CC1,i
Cc1ncc(C23CC4CC(CC(C4)C2)C3)[nH]1,i
O=[N+]([O-])c1ccc(N2CCN(S(=O)(=O)c3ccccc3)CC2)cc1NCCN1CCOCC1,0.6
O=C(CSc1nnc(-c2ccncc2)n1Cc1ccco1)Nc1ccccc1Cl,0.1
CCc1nnc(NC(=O)CSc2nnc(-c3ccccc3OC)n2-c2ccc(C)cc2)s1,2.0
COCCNC(=O)c1c(CSc2ccc(F)cc2)noc1C(=O)NCc1ccccc1,0.4
COC(=O)/C(=C1/Oc2cc3c(cc2S1)OCO3)C(F)(F)F,i
O=C(COC(=O)Cc1ccc(Br)cc1)NC12CC3CC(CC(C3)C1)C2,0.8
O=C(CSc1nccc(=O)[nH]1)N1CCCc2ccccc21,0.6
O=C(COC(=O)c1cccc(S(=O)(=O)N2CCOCC2)c1)Nc1nc(-c2ccccc2Cl)cs1,i
Cc1ccc(CSC2=NCCN2C(=O)c2ccco2)cc1,1.7
Cc1cc2ccccc2n2c(SCC(=O)NCc3cccs3)nnc12,3.1
C=CCc1ccc(OCCOCCN(C)C)c(OC)c1,i
O=C(c1cn(-c2ccccc2)nc1-c1cccs1)N(CCO)Cc1ccccc1,1.5
O=C1CC(c2ccc3c(c2)OCO3)Sc2nc3ccccc3n21 (stereo unspecified),1.0
CSc1nc(N2CCCC2)c2c(c1C#N)CC(C)(C)OC2,i
CN(C)S(=O)(=O)N1CCN(CC(O)COc2ccc3cc(Br)ccc3c2)CC1 (stereo unspecified),i
COc1ccc(CCn2c(C)cc(C(=O)CSc3nc(N)cc(=O)[nH]3)c2C)cc1,0.5
CCOc1ccc2c(c1)n([O-])c1c([n+]2=O)CCCC1,0.5
CCN1CCN(Cc2c(O)ccc3c(=O)c(-c4ccccc4OC)coc23)CC1,0.3
O=C(O)c1ccccc1N/N=C\c1ccnc2ccccc12,i
CCCCOC(=O)Cn1cnc2ccc(Br)cc2c1=O,1.0
CCn1c(SCC(=O)Nc2sc3c(c2C#N)CCC(C(C)(C)C)C3)nnc1-c1ccco1 (stereo unspecified),i
CCOCCCNc1nc(=S)[nH]c2cc(OC)c(OC)cc12,i
O=C1CSC(c2cccs2)N1c1ccccc1 (stereo unspecified),1.3
COc1ccc(CNc2nc(-c3cccnc3)nn2C(=O)c2cccs2)cc1,0.7
Cc1cccc2cc3c(N)c(C#N)sc3nc12,i
Cc1ccc(S(=O)(=O)NC(CC(=O)O)c2ccccc2)c(C)c1 (stereo unspecified),i
COc1ccc(C2N3CC4(C)CN2CC(C)(C3)C4)cc1OC (stereo unspecified),0.2
Cc1nn(-c2ccccc2)c2c1C(c1ccco1)C(C#N)=C(N)O2 (stereo unspecified),0.6
COc1ccc(S(=O)(=O)NCCc2csc(C)n2)cc1C,0.2
O=C(NCCc1ccccc1)C1CCCN(S(=O)(=O)c2cccnc2)C1 (stereo unspecified),i
Cn1ncc(N=Cc2ccc([N+](=O)[O-])cc2)c1C(=O)N1CCOCC1,1.5
O=C(NCCOc1ccccc1)c1cc2ccccc2o1,0.3
CC1CCCC(C)N1C(=O)Cn1cc(/C=C2/C(=O)Nc3ccccc32)c2ccccc21 (stereo unspecified),0.2
C=CCSc1nc(C)c(CC(=O)OCC(C)C)c(=O)[nH]1,0.5
COc1ccccc1OCC(=O)Nc1ccc(S(=O)(=O)N2CCCCCC2)cc1,0.4
C=C1C(O)(c2ccccc2)C2CC[N+]1(C)CC2 (stereo unspecified),i
COc1ccc(OC)c(NC(=O)Cc2coc3ccc(C)cc23)c1,i
COc1ccc(C(=S)N(C)C)cc1OC,i
COc1ccccc1OCCCOc1ccc([N+](=O)[O-])cc1Cl,0.3
O=C(COc1ccccc1)n1nc(-c2ccc(Cl)cc2)nc1NCc1ccco1,0.9
CCOC(=O)c1ccc(NC2c3ccccc3C(=O)N2c2ccc(C)cn2)cc1 (stereo unspecified),i
CCOc1ccc(OCC)c(-c2c(=O)n(OCc3ccc(Cl)cc3)c3ccccc3[n+]2[O-])c1,1.0
CN(C)C(=O)c1c(-c2ccccc2)oc2ccc(O)cc12,3.3
CCC(=O)NCCc1nc2ccccc2[nH]1,i
CCn1c(CC(=O)Nc2ccc(C)cc2)nnc1SCC(=O)NCc1ccccc1,0.6

# Reprinted from the results shown for reference:
SMILES,H5N1 CPE
Cc1cccc2cc3c(N)c(C#N)sc3nc12,i
Cc1ccc(S(=O)(=O)NC(CC(=O)O)c2ccccc2)c(C)c1 (stereo unspecified),i
COc1ccc(C2N3CC4(C)CN2CC(C)(C3)C4)cc1OC (stereo unspecified),0.2
Cc1nn(-c2ccccc2)c2c1C(c1ccco1)C(C#N)=C(N)O2 (stereo unspecified),0.6
COc1ccc(S(=O)(=O)NCCc2csc(C)n2)cc1C,0.2
O=C(NCCc1ccccc1)C1CCCN(S(=O)(=O)c2cccnc2)C1 (stereo unspecified),i
Cn1ncc(N=Cc2ccc([N+](=O)[O-])cc2)c1C(=O)N1CCOCC1,1.5
O=C(NCCOc1ccccc1)c1cc2ccccc2o1,0.3
CC1CCCC(C)N1C(=O)Cn1cc(/C=C2/C(=O)Nc3ccccc32)c2ccccc21 (stereo unspecified),0.2
C=CCSc1nc(C)c(CC(=O)OCC(C)C)c(=O)[nH]1,0.5
COc1ccccc1OCC(=O)Nc1ccc(S(=O)(=O)N2CCCCCC2)cc1,0.4
C=C1C(O)(c2ccccc2)C2CC[N+]1(C)CC2 (stereo unspecified),i
COc1ccc(OC)c(NC(=O)Cc2coc3ccc(C)cc23)c1,i
COc1ccc(C(=S)N(C)C)cc1OC,i
COc1ccccc1OCCCOc1ccc([N+](=O)[O-])cc1Cl,0.3
O=C(COc1ccccc1)n1nc(-c2ccc(Cl)cc2)nc1NCc1ccco1,0.9
CCOC(=O)c1ccc(NC2c3ccccc3C(=O)N2c2ccc(C)cn2)cc1 (stereo unspecified),i
CCOc1ccc(OCC)c(-c2c(=O)n(OCc3ccc(Cl)cc3)c3ccccc3[n+]2[O-])c1,1.0
